Compound activity as filed in PubChem BioAssay.
miR-21 FLuc: qHTS Assay for Modulators of miRNAs and/orActivators of miR-21; 340,000 tested, under 10 active; HeLa miR-21 FLuc reporter, luciferase, 48 h; Potency, µM (highest dose often 38.3 µM), for the others: at the highest dose reporter change, positive = more light; active = well fitted rising curve with a large enough effect; inconclusive = small, poorly fitted or top-dose-only effect; inactive = no such curve, though single readings can be large or run the other way;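 note: % of control where 0% means no effect; miR-21 action dims this reporter so a rising signal means less miR-21 action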
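Compounds were titrated across several concentrations (up to approximately 40 uM) and incubated 48 hours with HeLa miR-21-FLuc reporter cells (miR-21 target sequence downstream of FLuc, endogenous miR-21). Readout was firefly luciferase luminescence after lytic detection reagent.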
Active calls of the source: *.

Results for COc1ccc(CCNC(=O)Cc2c(C)c3c(cc(C)c4c(C)c(C)oc43)oc2=O)cc1OC ?
miR-21 FLuc: 9%

Results for Cc1ccc(NC(=O)c2c(Nc3ccccc3C)sc(C(=O)c3ccccc3)c2N)cc1 ?
miR-21 FLuc: inconclusive

How did CCc1ccc(Oc2c(C(F)(F)F)oc3c(CN4CCC(C)CC4)c(O)ccc3c2=O)cc1 do in these assays?
miR-21 FLuc: -1%

What do the screens show for `O=C(Cc1ccccc1)N(Cc1cccnc1)c1nc2c(F)cccc2s1`?
miR-21 FLuc: 8%

Results for COc1cc(C)ccc1OCCSc1nc2ccc(NC(=O)c3ccccc3F)cc2s1 ?
miR-21 FLuc: -8%

Results for CCc1ccc(S(=O)(=O)c2nnn3c2nc(N2CCC(C)CC2)c2cc(Cl)ccc23)cc1 ?
miR-21 FLuc: 1%

What do the screens show for `O=C(Nc1cc(Cl)cc(Cl)c1)c1ccc(F)c(S(=O)(=O)N2CCCCCC2)c1`?
miR-21 FLuc: -3%

How did CCc1cccc(NC(=O)CNS(=O)(=O)c2ccc3nc(C)sc3c2)c1 do in these assays?
miR-21 FLuc: -7%

Results for O=C(Nc1cccc(-c2nc3ccccc3o2)c1)c1cccc(Br)c1 ?
miR-21 FLuc: 0%

Results for CCCCOc1ccc(CNC(=O)c2cnc3sc(N4CCC(C)CC4)nn3c2=O)cc1 ?
miR-21 FLuc: -4%

What do the screens show for `COc1cccc(Nc2sc(C(=O)c3ccc(F)cc3)c(N)c2C(=O)NCc2ccc(Cl)cc2)c1`?
miR-21 FLuc: 16%

Results for CC1CCN(C(c2ccc(F)cc2)c2sc3nc(-c4ccco4)nn3c2O)CC1 (stereo not drawn) ?
miR-21 FLuc: -1%

How did COc1cccc(NC(=O)Cn2c(=O)n(CCCC(=O)NCc3ccc4c(c3)OCO4)c(=O)c3ccccc32)c1 do in these assays?
miR-21 FLuc: -1%

How did COc1ccc(-c2cc(C(F)(F)F)n3nc(C(=O)Nc4sc5c(c4C(=O)OC(C)C)CCCC5)cc3n2)cc1OC do in these assays?
miR-21 FLuc: -9%

Results for CCOC(=O)Cn1c(=O)n(-c2ccccc2OC)c2nc(-c3ccccc3F)nc(C(N)=O)c21 ?
miR-21 FLuc: -1%

What do the screens show for `COc1cccc(NC(=O)Cn2nnc(-c3nc(-c4ccccc4)no3)c2N)c1`?
miR-21 FLuc: -33%

Results for O=C(Nc1ccc2nn(-c3ccccc3)nc2c1)c1ccc(-c2cccc(Cl)c2)o1 ?
miR-21 FLuc: -46%

What do the screens show for `COc1ccc(NC(=O)C(Cc2c[nH]c3ccccc23)NC(=O)OC(C)(C)C)cc1` (stereo not drawn)?
miR-21 FLuc: -1%

How did CCc1ccc(CNC(=O)c2cnc3sc4cc(OC)ccc4n3c2=O)cc1 do in these assays?
miR-21 FLuc: -2%

Results for COc1ccccc1NC(=O)Cn1c(=O)n(CC(=O)NCc2ccccc2Cl)c(=O)c2sccc21 ?
miR-21 FLuc: -7%

Structural class: the entries above with a thiophene ring, fused or not
Results for Cc1ccc(NC(=O)c2c(Nc3ccccc3C)sc(C(=O)c3ccccc3)c2N)cc1 ?
miR-21 FLuc: inconclusive

What do the screens show for `COc1cccc(Nc2sc(C(=O)c3ccc(F)cc3)c(N)c2C(=O)NCc2ccc(Cl)cc2)c1`?
miR-21 FLuc: 16%

How did COc1ccc(-c2cc(C(F)(F)F)n3nc(C(=O)Nc4sc5c(c4C(=O)OC(C)C)CCCC5)cc3n2)cc1OC do in these assays?
miR-21 FLuc: -9%

Results for COc1ccccc1NC(=O)Cn1c(=O)n(CC(=O)NCc2ccccc2Cl)c(=O)c2sccc21 ?
miR-21 FLuc: -7%

(further entries)
Results for CCN(C(=O)Cn1c(=O)nc(-c2ccccc2)c2cc(Cl)ccc21)c1cccc(C)c1 ?
miR-21 FLuc: inconclusive

Results for CCOc1ccc(-c2oc3ccc(C)cc3c(=O)c2O)cc1 ?
miR-21 FLuc: -29%

What do the screens show for `CCc1cccc(C)c1NC(=O)C1CCN(S(=O)(=O)c2cc(Br)cc3c2N(C(C)=O)CC3)CC1`?
miR-21 FLuc: -6%

How did CC(=O)N1CCCc2cc(S(=O)(=O)N3CCC(C(=O)Nc4c(C)cccc4C)CC3)ccc21 do in these assays?
miR-21 FLuc: 12%

What do the screens show for `Cc1c(C(=O)N(Cc2ccc(N(C)C)cc2)CC2CCCO2)oc2ccc(Cl)cc12` (stereo not drawn)?
miR-21 FLuc: -2%

What do the screens show for `CC(C)Oc1ccc(CNC(=O)c2ccc3c(c2)nc2n3CCCCC2)cc1`?
miR-21 FLuc: -7%

Results for COc1ccc(NC(=O)CCn2c(=O)c3cccn3c3cccnc32)c(OC)c1 ?
miR-21 FLuc: -9%

Results for CCOc1ccccc1C1C(C(=O)N2CCCCC2)=C(C)Nc2nc3ccccc3n21 (stereo not drawn) ?
miR-21 FLuc: 1%

What do the screens show for `O=C(Nc1ccc2nn(-c3ccccc3)nc2c1)c1cc2ccccc2o1`?
miR-21 FLuc: -2%

Results for Cc1ccc(S(=O)(=O)Nc2cc(Cl)c3oc4c(c3c2)C(=O)CC(C)(C)C4)cc1 ?
miR-21 FLuc: -2%

What do the screens show for `Cc1ccc(C)c(NC(=O)Nc2nnc(N(CC(C)C)CC(C)C)s2)c1`?
miR-21 FLuc: -51%

How did Cc1ccc(-n2ncc3c(N(C)C)ncnc32)cc1Cl do in these assays?
miR-21 FLuc: -36%

How did Cc1ccc2nc(Cl)c3cc(C(=O)NCCCN(C)Cc4ccccc4)sc3c2c1 do in these assays?
miR-21 FLuc: 25%

Results for CC(=O)Nc1ccc2nc(SCCOc3ccc(C)cc3)sc2c1 ?
miR-21 FLuc: -17%

Results for CC(NC(=O)c1ccc2c(c1)N(Cc1cccc(F)c1)C(=O)c1ccccc1S2)c1ccccc1 (stereo not drawn) ?
miR-21 FLuc: -11%

Results for COCCn1c(C)cc(O)c(C(c2ccc(OC)cc2)N2CCN(c3ccccc3)CC2)c1=O (stereo not drawn) ?
miR-21 FLuc: -5%

How did Cc1ccc(C(=O)NC2=NC(c3ccc(C)cc3)CC(=O)N2)cc1 (stereo not drawn) do in these assays?
miR-21 FLuc: 1%

Results for Cc1ccc(-c2nnc(Nc3ccc(OC(F)(F)Cl)cc3)c3ccccc23)cc1S(=O)(=O)NC(C)(C)CO ?
miR-21 FLuc: 10%

Results for CCOCCCNC(=O)C(c1ccc(C)cc1)N(Cc1ccc2c(c1)OCO2)C(=O)c1ccc(NC(C)=O)cc1 (stereo not drawn) ?
miR-21 FLuc: 21%

What do the screens show for `COc1ccc(-c2cc3ccc(O)c(CN4CCCC4)c3oc2=O)cc1`?
miR-21 FLuc: -47%

Molecules shown so far containing a CF3 group, in the order listed:
How did CCc1ccc(Oc2c(C(F)(F)F)oc3c(CN4CCC(C)CC4)c(O)ccc3c2=O)cc1 do in these assays?
miR-21 FLuc: -1%

How did COc1ccc(-c2cc(C(F)(F)F)n3nc(C(=O)Nc4sc5c(c4C(=O)OC(C)C)CCCC5)cc3n2)cc1OC do in these assays?
miR-21 FLuc: -9%

(more compounds)
What do the screens show for `CSc1ncc(C(=O)N2CCN(c3cc(C)ccc3C)CC2)c(C)n1`?
miR-21 FLuc: -1%

How did CCOC(=O)c1ccc(N2C(=O)c3n[nH]c(C)c3C2c2ccc(C(C)C)cc2)cc1 (stereo not drawn) do in these assays?
miR-21 FLuc: -1%

What do the screens show for `Cc1cccc(CNC(=O)c2ccc(Cn3c(=O)c4cccn4c4cccnc43)cc2)c1`?
miR-21 FLuc: -1%

How did CCCOc1cccc(C(=O)N(Cc2ccc(C)o2)C2CCS(=O)(=O)C2)c1 (stereo not drawn) do in these assays?
miR-21 FLuc: 1%

How did Cc1cccc(-c2nc3nc(C)cc(NCc4ccccc4Cl)n3n2)c1 do in these assays?
miR-21 FLuc: 4%

What do the screens show for `CCc1ccc(Sc2cc(C(=O)NCCCN3CCCC(C)C3)c3ccccc3n2)cc1` (stereo not drawn)?
miR-21 FLuc: 0%

Results for Cc1cccc(NC(=O)c2c(N)sc3c2CCC(C)C3)c1 (stereo not drawn) ?
miR-21 FLuc: -28%

Results for CCOc1ccc(C2CC(=O)NC(NC(=O)c3cccc(Cl)c3)=N2)cc1 (stereo not drawn) ?
miR-21 FLuc: -1%

How did COc1ccc(-c2cc(OC(=O)c3ccc(F)cc3)c3c(C)oc(C)c3c(=O)c2)cc1OC do in these assays?
miR-21 FLuc: 0%

Results for CCCOc1ccc(C(=O)Nc2ccc(NC(=O)c3ccccc3)c(C)c2)cc1 ?
miR-21 FLuc: -15%

Results for Nc1c(-c2nc(-c3cccs3)no2)nnn1-c1ccc(Cl)cc1 ?
miR-21 FLuc: -19%

Results for CC(=O)c1ccc(N2CCN(S(=O)(=O)c3c(C)nc4sc(C)cn4c3=O)CC2)cc1 ?
miR-21 FLuc: 6%

What do the screens show for `CCc1ccc(-c2nc(CS(=O)CC(=O)NCCc3ccc(C)cc3)c(C)o2)cc1` (stereo not drawn)?
miR-21 FLuc: -4%

Results for Cc1cc(C)cc(NC(=O)c2oc3ccc4c(c3c2C)C(=O)CC(C)(C)O4)c1 ?
miR-21 FLuc: -65%

How did O=C(COCc1cc(-c2cccs2)on1)Nc1cc(C(F)(F)F)ccc1Cl do in these assays?
miR-21 FLuc: -9%

Results for COC(=O)N1CCCc2cc(S(=O)(=O)NCc3ccccc3)ccc21 ?
miR-21 FLuc: 3%

Results for CCCCOC(=O)c1ccc(NC(=O)c2cc(-c3ccccc3)on2)cc1 ?
miR-21 FLuc: -8%

Results for Cc1cc(NC(=O)CSc2ncc(C(=O)Nc3ccccc3)c(=O)n2C)no1 ?
miR-21 FLuc: 0%

Results for O=C(Nc1ccccc1C(F)(F)F)c1noc2c1CCCC2 ?
miR-21 FLuc: -52%

How did CC(=O)c1cc(-c2ccccc2)n(CC(=O)NC2CCCCCC2)c1C do in these assays?
miR-21 FLuc: -3%

How did CCOC(=O)N1CCc2c(sc(NCc3cccc(F)c3)c2C(=O)Nc2ccccc2OCC)C1 do in these assays?
miR-21 FLuc: 4%

How did COc1ccc(-n2c(/C=C/c3cccc4ccccc34)nc3ccccc3c2=O)cc1OC do in these assays?
miR-21 FLuc: 5%

How did O=C(NCC(c1ccc2c(c1)OCO2)N1CCN(c2ccc(F)cc2)CC1)c1cccc([N+](=O)[O-])c1 (stereo not drawn) do in these assays?
miR-21 FLuc: 25%

What do the screens show for `Cc1ccc(N2CC(C(=O)Nc3ccc(N(C)C)cc3)CC2=O)cc1Cl` (stereo not drawn)?
miR-21 FLuc: 0%

What do the screens show for `COc1cc(CSc2ncc(CO)n2Cc2ccc(C)cc2)cc(OC)c1`?
miR-21 FLuc: inconclusive

What do the screens show for `CCCc1oc2ccc(NS(=O)(=O)c3ccc(OC)cc3)cc2c1C(=O)OCC`?
miR-21 FLuc: 6%

Results for COc1ccc(CNC(=O)c2ccc3c(c2)N(Cc2ccccc2)C(=O)c2ccccc2S3=O)cc1 (stereo not drawn) ?
miR-21 FLuc: -4%

How did COc1ccc(-n2c(=O)c3c4c(sc3n3c(SC(C)C)nnc23)COC(C(C)C)C4)cc1 (stereo not drawn) do in these assays?
miR-21 FLuc: -1%

How did CCc1nc2ccc(C(=O)NCc3ccccc3C)cc2nc1CC do in these assays?
miR-21 FLuc: 16%

How did Cc1nc2ccc(S(=O)(=O)NC(C(=O)NCc3ccc(Cl)cc3)C(C)C)cc2s1 (stereo not drawn) do in these assays?
miR-21 FLuc: -30%

Grouped by structure: the compounds so far containing bromine
Results for O=C(Nc1cccc(-c2nc3ccccc3o2)c1)c1cccc(Br)c1 ?
miR-21 FLuc: 0%

What do the screens show for `CCc1cccc(C)c1NC(=O)C1CCN(S(=O)(=O)c2cc(Br)cc3c2N(C(C)=O)CC3)CC1`?
miR-21 FLuc: -6%

In the list so far, 2 contain an NH in an aromatic ring:
What do the screens show for `COc1ccc(NC(=O)C(Cc2c[nH]c3ccccc23)NC(=O)OC(C)(C)C)cc1` (stereo not drawn)?
miR-21 FLuc: -1%

How did CCOC(=O)c1ccc(N2C(=O)c3n[nH]c(C)c3C2c2ccc(C(C)C)cc2)cc1 (stereo not drawn) do in these assays?
miR-21 FLuc: -1%

The list goes on.
Results for CC(C(=O)Nc1ccc(OC(F)(F)F)cc1)N1Cc2ccccc2C1=O (stereo not drawn) ?
miR-21 FLuc: 1%

How did COc1ccc2sc(N(Cc3cccnc3)C(=O)CCc3ccccc3)nc2c1 do in these assays?
miR-21 FLuc: 29%

What do the screens show for `Cc1ccc(C(=O)N2CCN(c3ccc(F)cc3)CC2)cc1NC(=O)c1nsc2ccccc12`?
miR-21 FLuc: -16%

How did COc1ccc(Cn2c(=O)n(-c3ccc(OC)cc3)c(=O)c3c2c2cc(OC)ccc2n3C)cc1 do in these assays?
miR-21 FLuc: -5%

How did O=C(Cn1c(-c2cccs2)cc2ccccc21)N1CCN(c2ccccc2F)CC1 do in these assays?
miR-21 FLuc: 8%

What do the screens show for `CCOC(=O)c1c(NC(=O)/C=C/c2ccc(OCC)cc2)sc2c1CCC2`?
miR-21 FLuc: -8%

How did Cc1ccc(CSc2nnc3[nH]c(=O)cc(-c4ccccc4)n23)cc1 do in these assays?
miR-21 FLuc: -7%

What do the screens show for `Cc1ccc(C(=O)NC2CCCc3c2cnn3-c2ccc(F)cc2F)cn1` (stereo not drawn)?
miR-21 FLuc: 18%

What do the screens show for `CCN1C(=O)c2ccccc2S(=O)(=O)c2ccc(C(=O)NCc3ccccc3OC)cc21`?
miR-21 FLuc: -3%

How did O=C(Cn1c(=O)nc(-c2ccccc2)c2ccccc21)N1CCN(c2ccc(F)cc2)CC1 do in these assays?
miR-21 FLuc: 1%

How did CCCS(=O)(=O)c1c(S(=O)(=O)CCC)c2cc(C(C)(C)C)ccn2c1C(=O)c1ccccc1 do in these assays?
miR-21 FLuc: 21%

How did CCOC(=O)CSc1nc2cc3c(cc2c(=O)n1CCCC(=O)NCc1ccc2c(c1)OCO2)OCO3 do in these assays?
miR-21 FLuc: 1%

Results for CCN(C(=O)c1cn(C)c(=O)c2ccccc12)c1cccc(C)c1 ?
miR-21 FLuc: 9%

An excerpt; count on the stated rates, not on these rows.
